# KCNQ2 block – KCNQ2 potassium channel inhibitors, primary screen, cell-based, CHO-K1, FluxOR thallium flux, B-score (AID 2156). O88943. 20 min; active compounds read low; only compounds with negative scores are shown here; some inactives read as strong as hits. actives 1.1% (n = 310,000). B-score at 10 µM;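 active = fluorescence ratio B-score at most minus 3 library SDs, with starting brightness B-score within 2 library SDs, cut at about -5.5 in these data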
# Target sequence (O88943 whole entry, looked up): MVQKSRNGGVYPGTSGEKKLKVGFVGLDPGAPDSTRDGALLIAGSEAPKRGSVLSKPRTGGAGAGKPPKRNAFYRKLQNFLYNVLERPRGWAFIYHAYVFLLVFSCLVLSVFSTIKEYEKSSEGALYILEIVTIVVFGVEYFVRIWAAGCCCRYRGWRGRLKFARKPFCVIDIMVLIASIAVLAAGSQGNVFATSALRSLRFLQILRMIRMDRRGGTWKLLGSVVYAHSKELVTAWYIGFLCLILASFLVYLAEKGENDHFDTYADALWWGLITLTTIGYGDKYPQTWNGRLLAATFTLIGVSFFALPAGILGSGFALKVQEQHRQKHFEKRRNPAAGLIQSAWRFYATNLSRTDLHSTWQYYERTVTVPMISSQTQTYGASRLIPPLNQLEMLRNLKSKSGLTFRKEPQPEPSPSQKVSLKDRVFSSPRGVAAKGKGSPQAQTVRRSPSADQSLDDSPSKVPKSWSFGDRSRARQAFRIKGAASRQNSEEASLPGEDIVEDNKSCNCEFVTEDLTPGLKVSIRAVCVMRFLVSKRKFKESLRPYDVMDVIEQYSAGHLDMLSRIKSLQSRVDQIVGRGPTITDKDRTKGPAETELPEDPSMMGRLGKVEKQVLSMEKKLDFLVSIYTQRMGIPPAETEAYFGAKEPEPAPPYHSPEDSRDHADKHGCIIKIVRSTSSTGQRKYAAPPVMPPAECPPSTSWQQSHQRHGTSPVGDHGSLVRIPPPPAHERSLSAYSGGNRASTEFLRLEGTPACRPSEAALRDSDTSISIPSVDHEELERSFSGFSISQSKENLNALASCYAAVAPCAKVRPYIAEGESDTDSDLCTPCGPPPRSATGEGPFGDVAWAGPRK
# KCNQ2 block baseline – second read-out of KCNQ2 block, no call of its own (marks repeat the call); B-score; measured here: initial fluorescence intensity artifact check;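 brightness before thallium and not channel activity; 0 = typical well and far values either way flag optical interference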
# Active calls of the source: *; i = inactive. The list is partial; the hit share may differ from the screen's.
SMILES,KCNQ2 block,KCNQ2 block baseline
Cc1ccc(Nc2cc(=O)[nH]c(=O)[nH]2)cc1C,i,1.5
O=C(CSc1ccccn1)N1CCN(C(=O)CSc2ccccn2)CC1,i,-1
CN(C)c1ccc(P(=O)(Nc2ccc([N+](=O)[O-])cc2)N2CCOCC2)c(NC(=O)c2cccs2)c1 (stereo not given),i,-0.29
Cc1nnc(SCC(=O)NCCc2ccccc2)s1,i,0.79
O=C(c1cccs1)N1CCN=C1SCc1cccnc1,i,0.05
O=c1[nH]c(=S)ccn1C1OC(CO)C(O)C1O (stereo not given),i,-0.2
CCCCN(C)CCNC(=O)c1cc2c(-c3cccc(OC)c3)nn(C)c2s1,i,0.65
COc1ccccc1N1N=C(c2ccc([N+](=O)[O-])cc2)CC1c1ccccc1 (stereo not given),-6.9*,3.7*
CCN1CCN(C(CNS(=O)(=O)c2ccc(F)cc2)c2cccnc2)CC1 (stereo not given),i,-0.28
COC(=O)N/N=C\c1ccc(OC/C=C/c2ccccc2)cc1,i,1
COc1ccc(/C=N/n2c(N)nc(-c3ccccc3)c2-c2ccccc2)cc1,-7*,-1.8*
O=C1CSC(c2ccccc2)N1c1nc(-c2ccc(Cl)cc2Cl)cs1 (stereo not given),i,0.73
Nc1ccc(-c2nc3nc(N)nc(N)c3nc2-c2ccc(N)cc2)cc1,i,-0.79
CCOC(=O)Cn1c(CN2CCN(C(=O)c3ccco3)CC2)nc2c1c(=O)n(C)c(=O)n2C,i,0.03
Cc1n[nH]c(C)c1CNCc1c(C(=O)N2CCCCCCC2)nc2ccc(Cl)cn12,i,-0.16
COc1ccc(C(C(=O)NC2CCCC2)N(CCC(C)C)C(=O)CCC(=O)Nc2cc(C)on2)cc1 (stereo not given),i,0.27
C=CCN=C(NC#N)SCC(=O)c1cccc(OC)c1,i,0.03
O=C(C1CCOCC1)N1CCCC(N2CCN(c3cccc(C(F)(F)F)c3)CC2)C1 (stereo not given),i,1.2
COc1ccc(Cl)cc1NC(=O)NCC1CCN(C(=O)OC(C)(C)C)CC1,i,1.2
CCOC(=O)c1c(-c2ccccc2)csc1NC(=O)C(C)NCCCN1CCOCC1 (stereo not given),i,-1.4
O=C(c1cccs1)n1nc(NCc2ccccc2)nc1NCc1ccccc1,i,0.25
COc1ccc(OCC(=O)NNc2nc3ccccc3s2)cc1,i,-0.6
COC(=O)Cc1c[nH]c2cccc(OCC(O)CN(Cc3ccc([N+](=O)[O-])cc3)C(C)(C)C)c12 (stereo not given),-8.5*,1.8*
COc1ccc(N(C(=O)c2ccco2)C(C(=O)NC2CCCC2)c2cccs2)cc1 (stereo not given),i,-1
CC1(C)CC(=O)C2=C(C1)Nc1cc(Cl)ccc1S2,i,0.55

# (listing goes on)
SMILES,KCNQ2 block,KCNQ2 block baseline
N#CC(=C=[N-])/C=C(\C(=O)c1ccccc1)[n+]1ccccc1,i,1.6
Oc1c(C(c2ccccn2)N2CCCCC2)cc(Cl)c2cccnc12 (stereo not given),i,-0.2
O=C(CCn1c(=S)[nH]c2cc3c(cc2c1=O)OCO3)N1CCc2ccccc2C1,i,0.15
Cc1sc(NC(=O)CN2CCCC2)nc1-c1ccc2c(c1)CCN2C(=O)c1cccc(F)c1,i,-1.6
C=CCNC(=S)N1CCc2[nH]c3ccccc3c2C1,i,0.27
Cc1cc(/C=C(\C#N)C(=O)NCC2CCCO2)c(C)n1-c1ccc(Cl)cc1 (stereo not given),i,-0.16
CC(C)CNC(=O)c1ccc(COc2ccc(Cl)cc2Cl)o1,i,-1.8
O=C(CCC1CCCN(Cc2ccc3c(c2)OCCO3)C1)NCc1ccc(F)c(F)c1 (stereo not given),i,-2
COc1cccc(-c2cc3nc4c(c(N5CCC6(CC5)OCCO6)n3n2)CCC4)c1,-7*,-0.01*
Cc1nc(SCC(=O)Nc2ccc(Cl)cc2[N+](=O)[O-])nc(C)c1C,i,-0.9
CCN1CCN(Cc2ccc(NC(=O)c3cc(NC(=O)C4=NN(c5ccccc5)C(=O)C4)cc(OC)c3)cc2C(F)(F)F)CC1,i,0.59
O=C(Nc1ccc2c(c1)C(=O)NC2=O)c1cccc(Cl)c1,i,-0.15
CN(C)C/C=C/C(O)(c1ccccc1)c1ccccc1,i,1.1
O=C1NC(c2ccccc2)(C(F)(F)F)SC2=NCCCN12 (stereo not given),i,-1.1
CN(C)c1ccc(C(CNS(=O)(=O)c2ccc3ccccc3c2)N2CCOCC2)cc1 (stereo not given),i,-1.4
Nc1nc(Br)c2c(F)cccc2c1-c1ccc(Cl)cc1,i,1.1
Cc1ccnc(NS(=O)(=O)c2ccc(NC(=O)c3cc(-c4ccc(Br)cc4)nc4ccccc34)cc2)n1,i,-1.9
CN(C)CCn1c2c(c(SCC(=O)NCc3ccccc3)nc1=O)CCC2,i,0.05
CCOC(=O)C1(CCOc2ccccc2)CCN(Cc2cccc3nonc23)CC1,-6.2*,-1.4*
CCOc1ccc(/C=C2\SC(=S)N(NS(=O)(=O)c3ccccc3)C2=O)cc1OC,i,-0.52
COc1ccc(SCc2noc(C(=O)NCC3CCCO3)c2C(=O)O)cc1 (stereo not given),i,-0.55
COc1ccc(NC(=O)N2CCCC2C(=O)Nc2ccccc2)cc1 (stereo not given),i,-1
Cc1ccc(C)c(N2CN(Cc3ccco3)CNC2=S)c1,i,0.02
Cc1ccc(-c2nnc(OCC3CCCO3)c3ccccc23)cc1 (stereo not given),i,-1.2
O=C(CS(=O)(=O)c1ccccc1)Nc1ncc([N+](=O)[O-])s1,i,-1

# 15 structures from above, sorted by length of the SMILES, lowest first.
SMILES,KCNQ2 block,KCNQ2 block baseline
C=CCNC(=S)N1CCc2[nH]c3ccccc3c2C1,i,0.27
Cc1ccc(C)c(N2CN(Cc3ccco3)CNC2=S)c1,i,0.02
Nc1nc(Br)c2c(F)cccc2c1-c1ccc(Cl)cc1,i,1.1
Cc1ccc(-c2nnc(OCC3CCCO3)c3ccccc23)cc1 (stereo not given),i,-1.2
O=C(Nc1ccc2c(c1)C(=O)NC2=O)c1cccc(Cl)c1,i,-0.15
Oc1c(C(c2ccccn2)N2CCCCC2)cc(Cl)c2cccnc12 (stereo not given),i,-0.2
N#CC(=C=[N-])/C=C(\C(=O)c1ccccc1)[n+]1ccccc1,i,1.6
O=C(CS(=O)(=O)c1ccccc1)Nc1ncc([N+](=O)[O-])s1,i,-1
Cc1nc(SCC(=O)Nc2ccc(Cl)cc2[N+](=O)[O-])nc(C)c1C,i,-0.9
O=C(CCC1CCCN(Cc2ccc3c(c2)OCCO3)C1)NCc1ccc(F)c(F)c1 (stereo not given),i,-2
O=C(CCn1c(=S)[nH]c2cc3c(cc2c1=O)OCO3)N1CCc2ccccc2C1,i,0.15
CCOc1ccc(/C=C2\SC(=S)N(NS(=O)(=O)c3ccccc3)C2=O)cc1OC,i,-0.52
Cc1sc(NC(=O)CN2CCCC2)nc1-c1ccc2c(c1)CCN2C(=O)c1cccc(F)c1,i,-1.6
Cc1ccnc(NS(=O)(=O)c2ccc(NC(=O)c3cc(-c4ccc(Br)cc4)nc4ccccc34)cc2)n1,i,-1.9
CCN1CCN(Cc2ccc(NC(=O)c3cc(NC(=O)C4=NN(c5ccccc5)C(=O)C4)cc(OC)c3)cc2C(F)(F)F)CC1,i,0.59

# Additional entries follow.
SMILES,KCNQ2 block,KCNQ2 block baseline
CCn1cc(SCC(=O)N2CCc3ccccc32)c2ccccc21,i,1.4
CCCCn1c2nc3ccccc3nc2c2c(=O)n(C(C)CC)cnc21 (stereo not given),i,-2.2
CN(C)S(=O)(=O)c1cccc(NC(=O)CSc2cccc3cccnc23)c1,i,4.2
CCN(CC)S(=O)(=O)c1ccc(N2CCOCC2)c(NC(=O)CC(C)(C)C)c1,i,-1.5
Cc1ccc(CC2S/C(=N/c3ccccn3)NC2=O)cc1 (stereo not given),i,2.8
O=C(Cn1cnc2ccccc2c1=O)NCc1ccco1,i,-1
CCOc1cc(CNCc2ccccn2)cc(Cl)c1OCC,i,0.44
CCOC(=O)CSc1ccc(S(=O)(=O)N(C)C2CCCCC2)cc1[N+](=O)[O-],i,0.86
CCOCC(=O)Nc1ccccc1C(=O)N1CCOCC1,i,-0.22
COc1ccc(Nc2ccc(S(=O)(=O)N3CCCCCC3)cc2[N+](=O)[O-])cc1,i,0.59
CC(C)C(C)(C#N)NC(=O)CN1C(=O)NC2(CCCc3ccccc32)C1=O (stereo not given),i,1.1
COc1ccc(OC)c(Nc2c3ccccc3nc3ccccc23)c1,i,1.1
Cc1c(NC(=O)c2ccc(Br)s2)c(=O)n(-c2ccccc2)n1C,i,0.85
CC(C)NC(=O)COC(=O)c1ccc(Cl)c(S(N)(=O)=O)c1,i,0.3
CCCS(=O)(=O)c1nc(S(=O)(=O)c2ccc(C)cc2)c(NCCCn2ccnc2)s1,i,2.6
Cn1c(=O)c(C(=O)c2ccccc2)c(O)c2ccccc21,i,-0.69
O=c1cc(Cl)c(-c2ccccc2)n[nH]1,i,0.51
O=C(OCc1cn(Cc2ccccc2)nn1)c1ccccc1,i,0.65
O=C(CN1CCc2ccccc21)NC(c1ccccc1)c1ccccc1,i,-0.01
Clc1cccc(Cl)c1COc1ccccn1,i,-1.3
Cc1ccc(S(=O)(=O)Nc2nnc(CC(C)(C)C)s2)cc1,i,2.3
CC(=O)c1sc(NC(=O)CCCOc2ccccc2C)nc1C,i,-1.6
COc1cc2c(cc1NC(=O)CN1CCN(S(=O)(=O)c3ccc(F)cc3)CC1)oc1ccccc12,i,-1.2
CC(C)NS(=O)(=O)c1cc(C(=O)O)ccc1Cl,i,-0.93
O=S(Cc1ccccc1)CC(O)(c1ccc(Cl)cc1)c1ccc(Cl)cc1 (stereo not given),i,-2.8

# Next records follow:
SMILES,KCNQ2 block,KCNQ2 block baseline
Cn1c(=O)c2c(nc(SCC(=O)OCc3ccccc3)n2C)n(C)c1=O,i,1.6
CC(=O)OC1OCCOC1NC(=S)NCc1ccco1 (stereo not given),i,0.65
COc1ccc(/C=N/NC(=O)CCCOc2ccc(Cl)cc2Cl)cc1[N+](=O)[O-],i,1.1
CSc1ccc(S(=O)(=O)NCCOc2ccccc2C)cc1,i,-0.77
Cc1ccccc1NC(=O)c1nc(S(C)(=O)=O)ncc1Cl,i,-2
CCN(CC)C(=S)SCc1csc(CC(=O)Nc2ccccc2C)n1,i,0.49
C/C(=C\C(=O)c1ccc(C)cc1)NCc1ccc(F)cc1,i,1.2
Cc1cc(NC(=O)CC(C)C)c(=O)n(Cc2c(F)cccc2Cl)c1,i,-0.03
CCCCN(CCCNC(=O)C1CCN(S(=O)(=O)CC)CC1)c1ccccc1,i,0.54
Cn1nnnc1NC(=O)c1ccccc1Cl,i,-1.2
O=C(C1CC2C=CC1C2)N1CCN(c2ccccc2)CC1 (stereo not given),i,1.4
Cc1ccc(-c2nnc(Nc3ccc(C(=O)N(C)C)cc3)c3ccccc23)cc1S(=O)(=O)NCC1CCCO1 (stereo not given),i,0.85
OCCC1CN(Cc2cccn2-c2cccnc2)CCN1C1CCCCC1 (stereo not given),i,2.3
CCOC(=O)CC(NC(=O)c1cccs1)c1ccc(OCC)cc1 (stereo not given),i,0.06
COc1cc(-c2cccs2)cc(=O)c2c(C)oc(C)c12,i,-0.19
O=c1[nH]c(CN2CCN(c3ccccc3)CC2)nc2ccccc12,i,-0.72
CCCCC1=CC2=CC(=O)C(C)(OC(=O)CC)C(=O)C2=CN1CCCOC(C)C (stereo not given),i,2.6
CCc1cccc(NC(=O)COc2ccccc2)c1,i,-0.93
COc1cccc(C(=O)CSc2nnnn2C2CCCCC2)c1,i,-0.1
COc1cc(C2C(C#N)=C(N)OC3=C2C(=O)CC(C)(C)C3)cc([N+](=O)[O-])c1O (stereo not given),i,-0.51
COc1cc2c(cc1OC)C(C)N(C(=O)CCc1c[nH]c3ccccc13)CC2 (stereo not given),i,-0.4
CCOc1nc(NC(=O)NC(=O)c2ccccc2)nc(-c2ccccc2)n1,i,0.86
CC(=NCc1ccco1)c1c(C)[nH]n(-c2nc3ccccc3s2)c1=O,i,-0.81
CCOc1ccccc1NC(=O)CCSc1nc2n[nH]c(C)c2c(=N)n1-c1ccccc1Cl,i,-1.6
Cc1ccc(NC(=O)Cn2nc(C)c([N+](=O)[O-])c2C)cc1C,i,-0.75

# The list goes on:
SMILES,KCNQ2 block,KCNQ2 block baseline
COc1ccc(-c2ccoc2)cc1[C@H]1[C@H]2C=CC[C@@H](C)[C@@H]2C(=O)N1Cc1ccccc1,i,0.11
O=C(O)CSc1nnc(SCc2cccc3ccccc23)s1,i,0.12
O=S(=O)(NCCc1nnc2ccc(SCc3cccnc3)nn12)c1ccccc1,i,-0.01
COC(=O)c1c(NC(=O)CN(c2ccccc2)S(C)(=O)=O)sc2c1CCCC2,i,1.4
CC(C)(C)OC(=O)NCCCC[C@H](NC(=O)c1nc[nH]c1C(=O)N[C@@H](CCCCNC(=O)OC(C)(C)C)C(=O)OC(C)(C)C)C(=O)OC(C)(C)C,i,-1.1
COc1ccc(/C=N/NC(=O)c2sccc2OCc2ccc(F)cc2)cc1OC,i,-0.06
N#CC1=C(N)Oc2c(oc(CO)cc2=O)C1c1ccccc1[N+](=O)[O-] (stereo not given),i,3.7
COc1ccc(S(=O)(=O)N2CCOC23CCN(C(=O)c2ccccc2OC)CC3)cc1,i,0.11
COc1cc([C@H](Cc2ccccc2)NC(C)=O)oc(=O)c1,i,-1.7
O=C(Nc1ccc(F)cc1)c1cccc(N2C(=O)C3C4C=CC(C4)C3C2=O)c1 (stereo not given),i,-0.6
COc1ccc(OC)c(NC(=O)c2c(NC(=O)c3ccco3)sc3c2CCC3)c1,i,-0.05
Cc1cc(C)nc(NS(=O)(=O)c2ccc(NC(=O)CN3C(=O)S/C(=C\c4ccccc4)C3=O)cc2)n1,i,1.9
CCC(Sc1nc2ccccc2c(=O)[nH]1)C(=O)Nc1ccc(C(C)=O)cc1 (stereo not given),i,-0.03
COc1ccc(-n2c(Cc3cccn3C)nnc2SCC(=O)Nc2cccc(OC)c2)cc1,i,-0.95
COC(=O)C1=CN(c2ccc(F)cc2)C=C(C(=O)OC)C1c1cccc(Br)c1,i,-0.25
CCN(CC)c1nc2ccccc2n(Cc2cccc(OC)c2)c1=O,i,2.3
